MT1-MMP act inh – inhibitors of human MT1-MMP activation; P50281; HT1080 RFP-PRO-GFP cells, GFP/RFP ratio fluorescence, overnight; percent of plate control window, DMSO zero; AID 651647; GFP/RFP ratio change, % at 20 µM; 360,000 compounds, 0.061% hits;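 active means GFP/RFP ratio change of at least 30% with cell ATP level not reduced by more than half and red fluorescence within 50% of control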; further: strong numbers were not always called active
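Assay system: HT1080 cells carrying an RFP-PRO-GFP reporter | Dosing: Single dose of 20 µM compound, 1% DMSO final | Incubation: Cells overnight before dosing, compound overnight, 37 °C, 5% CO2 | Evaluation: GFP/RFP fluorescence ratio | Control set: DMSO and RFP-L50D-GFP cell wells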
PABP polyA inh – PABP-poly(A) binding inhibition | P11940 | PABP-poly(A) RNA binding, fluorescence polarization | inhibition, % at 35 µM | 290,000 compounds, 1% hits;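 active means 50% or more with normal probe brightness, or confirmed in later tests; inconclusive means above 50% with abnormal brightness, or retests that disagree; inactive means below 50% or failed in later tests; about a fifth of its hits are not listed in these tables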;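 further: calls also rest on retests at 20 µM and on dose response follow-up; controls were probe without protein and protein plus probe with vehicle; some compounds called inactive have numbers as strong as hits; many hits fall short of the cut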
Target sequence (P11940 whole entry, looked up): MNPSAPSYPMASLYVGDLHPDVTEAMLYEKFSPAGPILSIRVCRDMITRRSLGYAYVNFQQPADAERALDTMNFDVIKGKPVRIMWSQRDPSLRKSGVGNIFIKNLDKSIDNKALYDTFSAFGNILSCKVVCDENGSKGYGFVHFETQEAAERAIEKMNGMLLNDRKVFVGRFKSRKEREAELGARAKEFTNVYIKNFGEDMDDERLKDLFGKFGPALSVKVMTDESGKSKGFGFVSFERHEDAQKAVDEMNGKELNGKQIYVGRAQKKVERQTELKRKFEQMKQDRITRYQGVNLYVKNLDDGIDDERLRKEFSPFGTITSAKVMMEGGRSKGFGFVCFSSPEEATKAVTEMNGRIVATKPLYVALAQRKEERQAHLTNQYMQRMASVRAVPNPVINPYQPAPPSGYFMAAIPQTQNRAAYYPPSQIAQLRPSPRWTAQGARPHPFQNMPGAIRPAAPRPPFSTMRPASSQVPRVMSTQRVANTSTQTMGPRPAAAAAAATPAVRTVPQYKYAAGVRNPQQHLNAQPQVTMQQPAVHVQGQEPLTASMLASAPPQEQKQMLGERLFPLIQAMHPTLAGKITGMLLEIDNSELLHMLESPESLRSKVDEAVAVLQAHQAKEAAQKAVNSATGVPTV
HIV Env fusion – blocks HIV Env-driven cell-cell fusion; inhibition, % at 12.3 µM; HeLa-JRFL Env/CEM21 cell fusion, luciferase; 360,000 compounds, 1.1% hits; AID 651610;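 active means mean replicate inhibition score of at least 50 and every replicate individually at or above 50; inconclusive means only one of the two criteria met; inactive means mean below 50 and not all replicates reaching 50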;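 further: 0% = plate neutral controls and 100% = maraviroc near 300 nM; one replicate is shown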
CSC inhib – blocks cancer stem cells; inhibition, % at 7.5 µM; 300,000 compounds, 1.1% hits; cancer stem cell-like cells viability, luminescence;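 active means mean at 75% or more and at least half the replicates too; inconclusive means mean and replicates disagree; tested in HMLE shEcad cells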;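 further: 0% = median of negative and 100% = median of positive control wells; the first replicate is given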
Yeast UUG start – modulators of start codon recognition fidelity in yeast; S. cerevisiae UUG-firefly luciferase reporter, luminescence/redox ratio; activity score, % at 18.7 µM; 350,000 compounds, 0.13% hits;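 active means replicate mean at a twofold rise or more, about +100% in these data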;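 further: firefly luciferase made from a UUG start codon reports start codon fidelity; reporter light over untreated wells divided by growth signal over untreated wells; some hits fall short of that in this replicate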
Rce1 inhib – inhibitors of yeast Ras-converting enzyme | yeast membranes, quenched prenylated peptide cleavage fluorescence | calls only | Q03530 | 290,000 compounds, 0.27% hits;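 active means fall in fluorescence gain of 50% or more versus controls, with final raw signal at or below 3038400; inconclusive means same 50% fall but final raw signal above 3038400; inactive means fall in fluorescence gain under 50%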;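 further: plate controls were neutral control wells for no effect and wells lacking membranes for full effect; tested at 10 µM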
Target sequence (Q03530 whole entry, looked up): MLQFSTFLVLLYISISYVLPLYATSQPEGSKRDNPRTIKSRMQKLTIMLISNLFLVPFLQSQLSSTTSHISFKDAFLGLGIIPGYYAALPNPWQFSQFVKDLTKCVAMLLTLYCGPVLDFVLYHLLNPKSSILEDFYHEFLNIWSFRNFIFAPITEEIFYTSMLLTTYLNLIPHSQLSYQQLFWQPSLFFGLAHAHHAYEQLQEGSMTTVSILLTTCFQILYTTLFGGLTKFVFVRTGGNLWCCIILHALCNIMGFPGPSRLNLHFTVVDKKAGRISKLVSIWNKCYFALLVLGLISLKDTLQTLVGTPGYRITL
eIF4H inh – inhibitors of RNA binding by human eIF4H; eIF4H fluorescence polarization binding assay; inhibition, % at 35 µM; 290,000 compounds, 0.94% hits; AID 2012;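 active means 50% or more with normal probe brightness, or confirmed in later tests; inconclusive means above 50% with abnormal brightness, or retests that disagree; inactive means below 50% or failed in later tests; about a fifth of its hits are not listed in these tables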;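 further: calls also rest on retests at 20 µM and on dose response follow-up; 0% = protein and probe with vehicle and 100% = probe without protein; strong numbers were not always called active; many hits fall short of the cut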
MT1-MMP act inh RFP – also measured in MT1-MMP act inh; calls as there; RFP signal change, %; measured here: RFP expression control read;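 0 = vehicle wells; hits needed this value within 50% of zero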
Numbers without * were called inactive. Outcome played no part in choosing rows; overall some 2.9% were active at least once.

For CC(C)c1ccc(C2c3[nH]c4ccccc4c3C[C@H]3C(=O)N(c4ccccc4C(=O)N4CCC(C(=O)O)CC4)C(=O)N23)cc1 (stereo not given in full) the results were MT1-MMP act inh 5, PABP polyA inh 3, CSC inhib -3, Yeast UUG start -3, Rce1 inhib inactive, eIF4H inh -3 and MT1-MMP act inh RFP -14.
`CCOc1c(C)cc(S(=O)(=O)NCc2ccccn2)c(C)c1C` gave MT1-MMP act inh 1, PABP polyA inh 15, HIV Env fusion -8, CSC inhib -12, Yeast UUG start 0, Rce1 inhib inactive, eIF4H inh 5 and MT1-MMP act inh RFP -5.
Screening CSc1cccc(NC(=O)CSc2ncccc2C(=O)Oc2cccc([N+](=O)[O-])c2)c1 returned MT1-MMP act inh 1, PABP polyA inh -6, HIV Env fusion 17, CSC inhib 10, Rce1 inhib inactive, eIF4H inh 1 and MT1-MMP act inh RFP 2.
Screening CN(C)c1cc(NC(=O)CNC(C)(C)CC(C)(C)C)c2ccccc2n1 returned MT1-MMP act inh 4, PABP polyA inh 29, HIV Env fusion -19, CSC inhib 51, Rce1 inhib inactive, eIF4H inh 6 and MT1-MMP act inh RFP -1.
For O=C(COC(=O)c1ccc(S(=O)(=O)N2CCCC2)cc1)NCc1cccs1 the results were MT1-MMP act inh -1, PABP polyA inh 2, HIV Env fusion 6, CSC inhib 0, Rce1 inhib inactive, eIF4H inh 0 and MT1-MMP act inh RFP 1.
For O=C(O)CC(Cc1ccc(Br)cc1)C(=O)O (stereo not given) the results were MT1-MMP act inh -3, PABP polyA inh -2, CSC inhib 3, Yeast UUG start -34, Rce1 inhib inactive, eIF4H inh 1 and MT1-MMP act inh RFP -8.
Screening CCOc1ccc(Oc2ccc(S(=O)(=O)N3CCOCC3)cc2NC(=O)C2=COCCO2)cc1 returned MT1-MMP act inh -3, HIV Env fusion 1, CSC inhib -17, Yeast UUG start -24, Rce1 inhib inactive and MT1-MMP act inh RFP -1.
CC(=O)c1ccc(OCc2cc(C(=O)NC(C)Cc3ccccn3)no2)cc1 (stereo not given) was read as MT1-MMP act inh -7, PABP polyA inh -13, HIV Env fusion -4, CSC inhib -9, Yeast UUG start -11, Rce1 inhib inactive, eIF4H inh -2 and MT1-MMP act inh RFP -5.
`Cc1cccc(NC(=O)CN(C)S(=O)(=O)c2cccc3nsnc23)c1C` gave MT1-MMP act inh 7, PABP polyA inh 8, HIV Env fusion -17, CSC inhib -3, Yeast UUG start -18, Rce1 inhib inactive, eIF4H inh -13 and MT1-MMP act inh RFP 1.
Screening CC(=O)Nc1ccc(S(=O)(=O)Nc2cccc(NC(=O)c3ccco3)c2)cc1 returned MT1-MMP act inh -1, PABP polyA inh 2, HIV Env fusion -24, Rce1 inhib inactive, eIF4H inh 2 and MT1-MMP act inh RFP -6.
CC(CNC1CCCCC1)OC(=O)c1ccccc1 (stereo not given) was read as MT1-MMP act inh 2, HIV Env fusion -27, Yeast UUG start -4 and MT1-MMP act inh RFP 2.
CCCCCC(=O)NNC(=S)NC(C)=O was read as MT1-MMP act inh 8, PABP polyA inh -2, HIV Env fusion -3, CSC inhib 0, Rce1 inhib inactive, eIF4H inh 3 and MT1-MMP act inh RFP 7.
For CCOC(=O)c1cc(-c2ccccc2)sc1NC(=S)Nc1cc(C)ccn1 the results were MT1-MMP act inh -1, PABP polyA inh -8, CSC inhib -7, Yeast UUG start 2, Rce1 inhib inactive, eIF4H inh -1 and MT1-MMP act inh RFP 1.
For CCOc1ccccc1NS(=O)(=O)c1c(C)[nH]c(C)c1C(=O)N1CCCCC1 the results were MT1-MMP act inh 1, PABP polyA inh -1, HIV Env fusion 8, CSC inhib -10, Yeast UUG start -7, Rce1 inhib inactive, eIF4H inh 9 and MT1-MMP act inh RFP 4.
For CC(=O)N1CCN(CCN2C(C)=CC(=C(C#N)C#N)C=C2C)CC1 the results were MT1-MMP act inh 1, PABP polyA inh inconclusive, HIV Env fusion 9, CSC inhib -11, Yeast UUG start -3, Rce1 inhib inactive, eIF4H inh -8 and MT1-MMP act inh RFP 0.
`CCC1(c2ccccc2)SCC(c2ccccc2)=NC1=O` (stereo not given) gave MT1-MMP act inh 0, HIV Env fusion 19, Yeast UUG start -8 and MT1-MMP act inh RFP -4.
Screening CC(C)CCNC(=O)c1csc2c1CCCCC2 returned MT1-MMP act inh 1, PABP polyA inh 8, HIV Env fusion -3, CSC inhib -13, Rce1 inhib inactive, eIF4H inh 6 and MT1-MMP act inh RFP 1.
Screening CNC(=O)COc1ccc(Nc2nnc(C)c3ccccc23)cc1 returned MT1-MMP act inh 5, PABP polyA inh 1, HIV Env fusion -11, CSC inhib -10, Yeast UUG start -9, Rce1 inhib inactive, eIF4H inh 4 and MT1-MMP act inh RFP 5.
For CC(C)Cn1c(N)c(C(=O)COC(=O)c2nccnc2N)c(=O)n(C)c1=O the results were MT1-MMP act inh 2, HIV Env fusion -7, Yeast UUG start -18 and MT1-MMP act inh RFP 2.
`CN(C(=O)CN1CCN(c2ccccc2F)CC1)C1CCCc2ccccc21` (stereo not given) gave MT1-MMP act inh -3, PABP polyA inh 8, HIV Env fusion -7, CSC inhib -14, Yeast UUG start 1, Rce1 inhib inactive, eIF4H inh 6 and MT1-MMP act inh RFP -2.
Screening CC(C)NS(=O)(=O)c1ccc(OCC(=O)NCc2cccnc2)cc1 returned MT1-MMP act inh -2, PABP polyA inh 4, CSC inhib -8, Yeast UUG start 10, Rce1 inhib inactive, eIF4H inh -4 and MT1-MMP act inh RFP 2.
For O=C(CSc1nc2ccccc2o1)c1ccc2c(c1)OCCO2 the results were MT1-MMP act inh 1, PABP polyA inh 0, CSC inhib 1, Yeast UUG start -12, eIF4H inh 7 and MT1-MMP act inh RFP 4.
CC(OC(=O)c1cc(S(=O)(=O)N(C)C)ccc1N1CCCC1)C(=O)NCc1ccccc1 (stereo not given) was read as MT1-MMP act inh 1, PABP polyA inh 13, HIV Env fusion -10, Yeast UUG start 15, Rce1 inhib inactive, eIF4H inh 4 and MT1-MMP act inh RFP 1.
Screening CNC(=O)Nc1ccc(Cn2cc(C(F)(F)F)ccc2=O)cc1 returned MT1-MMP act inh 2, PABP polyA inh -6, HIV Env fusion 9, CSC inhib 2, Rce1 inhib inactive, eIF4H inh 8 and MT1-MMP act inh RFP 6.
Screening CC1CCCN(C(=S)SCC(=O)O)C1 (stereo not given) returned MT1-MMP act inh 2, PABP polyA inh -19, HIV Env fusion -11, CSC inhib -1, Rce1 inhib inactive, eIF4H inh -2 and MT1-MMP act inh RFP 2.
O=C(CN1C(=O)NC2(CCc3ccccc3C2)C1=O)Nc1ccc(Cl)cc1F (stereo not given) was read as MT1-MMP act inh 1, PABP polyA inh 2, HIV Env fusion -12, Rce1 inhib inactive, eIF4H inh -5 and MT1-MMP act inh RFP 4.
`CCOc1ccccc1CNC(=O)CN1C(=O)CSc2ccc(S(=O)(=O)N3CCOCC3)cc21` gave MT1-MMP act inh 1, PABP polyA inh 1, HIV Env fusion -2, CSC inhib -3, Yeast UUG start 14, Rce1 inhib inactive, eIF4H inh -3 and MT1-MMP act inh RFP 4.
CCOC(=O)Nc1sc(C(=O)N(C)C)c(C)c1C(=O)OCC was read as MT1-MMP act inh 2, PABP polyA inh 7, CSC inhib 9, Rce1 inhib inactive, eIF4H inh 4 and MT1-MMP act inh RFP 6.
For Cc1csc(-c2cccnc2)n1 the results were MT1-MMP act inh -2, PABP polyA inh -2, HIV Env fusion 2, CSC inhib 9, Yeast UUG start -10, Rce1 inhib inactive, eIF4H inh 34 and MT1-MMP act inh RFP 2.
Screening CCN(CC)CCn1c(NS(=O)(=O)c2ccc(Cl)cc2)nc2ccccc21 returned MT1-MMP act inh 3, PABP polyA inh 4, HIV Env fusion 3, CSC inhib -6, Yeast UUG start -9, Rce1 inhib inactive, eIF4H inh -12 and MT1-MMP act inh RFP 5.
COc1ccc(C(C)=O)cc1COc1ccc(F)cc1 was read as MT1-MMP act inh 4, PABP polyA inh -7, HIV Env fusion 9, CSC inhib -3, Rce1 inhib inactive, eIF4H inh -6 and MT1-MMP act inh RFP 3.
Cc1ccccc1-c1cnc(C(O)c2cc(Cl)cc(Cl)c2)[nH]1 (stereo not given) was read as MT1-MMP act inh 2, HIV Env fusion 17, Yeast UUG start -13 and MT1-MMP act inh RFP -1.
For CC(C)CCOc1ccccc1C(N)=O the results were MT1-MMP act inh 1, PABP polyA inh -8, HIV Env fusion -3, CSC inhib -4, Yeast UUG start -17, eIF4H inh 2 and MT1-MMP act inh RFP 2.
`CC(C)CNC(=O)/C=C/C=C/CCCC/C=C/c1ccc2c(c1)OCO2` gave MT1-MMP act inh 0, HIV Env fusion 10, CSC inhib -4, Yeast UUG start -12 and MT1-MMP act inh RFP 1.
For COCC(=O)N1CCC(Oc2ccc(C(=O)NCc3cc(C)n(C)n3)cc2)CC1 the results were MT1-MMP act inh 1, PABP polyA inh 1, HIV Env fusion 13, CSC inhib 7, Yeast UUG start 3, Rce1 inhib inactive, eIF4H inh -5 and MT1-MMP act inh RFP 3.
`O=C(Cn1nc(-c2ccc(Cl)cc2)c2ccccc2c1=O)NCC1CCCO1` (stereo not given) gave MT1-MMP act inh -1, PABP polyA inh 6, HIV Env fusion -100, CSC inhib -11, Yeast UUG start -9, Rce1 inhib inactive, eIF4H inh 2 and MT1-MMP act inh RFP 0.
For COc1ccc2c(C(=O)CN3CC(C)OC(C)C3)c[nH]c2c1 (stereo not given) the results were MT1-MMP act inh -4, PABP polyA inh 5, CSC inhib -6, Yeast UUG start -5, Rce1 inhib inactive, eIF4H inh 4 and MT1-MMP act inh RFP -3.
`O=C(COC(=O)/C=C/c1ccc(F)cc1)NCc1ccco1` gave MT1-MMP act inh 7, PABP polyA inh 0, HIV Env fusion 0, CSC inhib -14, Yeast UUG start -3, Rce1 inhib inactive, eIF4H inh -5 and MT1-MMP act inh RFP 5.
Screening Cc1ccc(S(=O)(=O)c2nc(S(C)(=O)=O)sc2N2CCN(C)CC2)cc1 returned MT1-MMP act inh -2, PABP polyA inh -4, HIV Env fusion 21, CSC inhib 16, Yeast UUG start -12, Rce1 inhib inactive, eIF4H inh 2 and MT1-MMP act inh RFP -2.
Screening O=C(CCl)Nc1c2c(nn1-c1ccccc1)CSC2 returned MT1-MMP act inh 1, HIV Env fusion -1, CSC inhib -6, Yeast UUG start 12, Rce1 inhib inactive and MT1-MMP act inh RFP 3.
O=C(CCc1nnc(CCCc2ccccc2)o1)NC(C1CC1)C1CC1 was read as MT1-MMP act inh 0, PABP polyA inh 3, HIV Env fusion -29, CSC inhib -2, Rce1 inhib inactive, eIF4H inh -5 and MT1-MMP act inh RFP 4.
For COc1ccc(C2/C=C\CN(S(=O)(=O)c3ccc(C)cc3)CC(=O)N2Cc2cccc(F)c2)cc1 (stereo not given) the results were MT1-MMP act inh -1, HIV Env fusion -41, Yeast UUG start 0 and MT1-MMP act inh RFP -10.
For Cn1ccnc1C(=O)c1cccc([N+](=O)[O-])c1 the results were MT1-MMP act inh -1, PABP polyA inh -8, CSC inhib 3, Yeast UUG start -11, Rce1 inhib inactive, eIF4H inh -9 and MT1-MMP act inh RFP 2.
For O=C(c1ccc(F)cc1)N1CCC(C(=O)N2CCN(S(=O)(=O)c3cccc(Cl)c3)CC2)CC1 the results were MT1-MMP act inh -1, HIV Env fusion 8, CSC inhib -5, Yeast UUG start 15, Rce1 inhib inactive and MT1-MMP act inh RFP -6.
Screening CC(=O)Nc1ccc(S(=O)(=O)N2CCN(Cc3cccs3)CC2)cc1 returned MT1-MMP act inh 2, PABP polyA inh 0, HIV Env fusion -16, CSC inhib -12, Rce1 inhib inactive, eIF4H inh 7 and MT1-MMP act inh RFP -6.
